# CapD inh: Bacillus anthracis CapD inhibitors, primary screen, biochemical, fluorescence intensity; CapD gamma-glutamyltranspeptidase (Bacillus anthracis Ames Ancestor); AID 492967, 2010; purified CapD enzyme, fluorescence intensity read-out; active compounds read low; some hits fall short of the stated cut; 140,000 tested, 0.23% active; z-score (concentration not given with the values);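 active means z-score under -4 in either of two replicates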;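 further: stock transfer was 100 nL into about 40 µL; score is relative to mean and spread of the plate; one replicate is shown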
# AID504770: growth inhibition of E. coli YBA685, primary screen, V. cholerae RctB inhibitors. AID 504770, 2011. 130,000 tested, 0.27% active. E. coli YBA685 rctB-dependent plasmid, OD600 growth, 3 h; active compounds read low. z-score (test concentration not listed);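 active means z-score under -2 on both plates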;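 further: wells of about 30 µL received 100 nL stock; score is relative to mean and SD of the test wells; the first replicate is given; strong numbers were not always called active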
# Numbers without * were called inactive; . = no result given. Some of the compounds tested; the hit share may differ from the screen's.
# Start of the data: the first two records, ahead of the listing:
SMILES,CapD inh,AID504770
CC(C)NC(=S)N1CCN(c2ccc3nnc(-c4ccc(F)cc4)n3n2)CC1,0.47,-0.4
C=CCOC(=O)C1=C(C)OC(N)=C(C#N)C1c1ccccc1[N+](=O)[O-] (centres undefined),0.3,.

# The whole of this part, from the start:
SMILES,CapD inh,AID504770
CC(C)NC(=S)N1CCN(c2ccc3nnc(-c4ccc(F)cc4)n3n2)CC1,0.47,-0.4
C=CCOC(=O)C1=C(C)OC(N)=C(C#N)C1c1ccccc1[N+](=O)[O-] (centres undefined),0.3,.
Cc1nnc2c(N3CC=C(c4ccccc4)CC3)nc3ccccc3n12,.,-0.45
O=C(Nc1ccc(OC(=O)c2sc3ccccc3c2Cl)cc1)c1sc2ccccc2c1Cl,-0.17,.
Cc1cc(C)cc(-n2c(SCc3cn4ccsc4n3)nc3ccccc3c2=O)c1,.,-0.05
COc1ccc(-c2cc(C(=O)N3CCOCC3)c3cc(C)ccc3n2)cc1,7.73,.
O=C(CCc1nnc2n(Cc3ccccc3)c(=O)c3ccccc3n12)NCc1ccccn1,.,-1.1
O=C(O)c1ccc(-n2c(/C=C\c3cc(Br)ccc3O)nc3ccccc3c2=O)cc1,-0.23,.
CN1CCSc2ccc(C(=O)NC3CCCCCC3)cc21,99,-0.75
CC(=O)NC(Cc1c[nH]c2ccccc12)C(=O)Nc1cccc(C#N)c1 (centres undefined),.,0.35
Cn1c(SCC(=O)N2CC(=O)Nc3ccccc32)nnc1C(F)(F)F,.,-0.3
CC1(C)Cc2cccc(OCC(=O)Nc3cccnc3)c2O1,.,0.2
COc1ccc(CN(C)C(=O)Cc2c[nH]c3ccccc23)c(OC)c1OC,.,-0.55
COc1cc(/C=c2\sc3nc4ccccc4n3c2=O)ccc1OCCOc1cccc(C)c1,-0.02,.
Cc1onc(-c2c(Cl)cccc2Cl)c1NC(=O)O/N=C/c1ccc(F)cc1,0.05,.
CN1CCc2c(c(S)[nH]c(=S)c2C#N)C1,80.7,2.25
CCCS(=O)(=O)N1CCC2(CC1)CC(=O)c1ccccc1O2,.,1.25
Oc1c(C(c2ccccn2)N2CCN(c3ccc(F)cc3)CC2)cc(Cl)c2cccnc12 (centres undefined),.,0.6
COC(CN(C)C(=O)c1cc2c(Cl)nc3ccc(C)cc3c2s1)OC,1.61,0.5
CC(=O)CNC(=O)Cc1ccccc1,-0.11,.
NNC(=O)c1cccnc1Oc1ccccc1,-1.07,0.6
CCOP(=S)(NC(C)C)OCC,-0.385,2.55
CCOc1ccc(/C=C2\SC(=S)N(CCC(=O)Nc3ccc(O)c(C(=O)O)c3)C2=O)cc1,-1.17,.
CCOC(=O)c1cnc2cc(-c3ccc(I)cc3)[nH]n2c1=O,1.94,-0.25
CC1(C)CC(=O)C2=C(C1)Nc1ccccc1NC2c1ccc2c(c1)OCO2 (centres undefined),-1.98,0.1

# Profiles, looked up by structure:
# O=C(Nc1ccc(OC(=O)c2sc3ccccc3c2Cl)cc1)c1sc2ccccc2c1Cl across the screens: CapD inh: -0.17; AID504770: .
# CN1CCc2c(c(S)[nH]c(=S)c2C#N)C1 across the screens: CapD inh: 80.7; AID504770: 2.25
# O=C(O)c1ccc(-n2c(/C=C\c3cc(Br)ccc3O)nc3ccccc3c2=O)cc1 across the screens: CapD inh: -0.23; AID504770: .

# (further entries)
SMILES,CapD inh,AID504770
Cc1c(NC(=O)CCCN2C(=O)/C(=C/c3ccccc3)SC2=S)c(=O)n(-c2ccccc2)n1C,0.165,.
O=C1CCc2cc3c(cc2O1)OC(=O)CC3,.,-0.5
O=C1CC(N2CCN(c3ccccn3)CC2)C(=O)N1c1ccc2c(c1)OCO2 (centres undefined),0.515,0.5
O=C(Nc1ccc(Cc2ccncc2)cc1)C1CC1,-0.025,-0.3
Cc1ccc(NCN2C(=O)C3CC=CCC3C2=O)cc1Cl (centres undefined),0.16,-1.1
O=C(Nc1ccc(-c2nc3ccccc3o2)cc1)c1ccccc1Cl,-0.385,2.2
COC(=O)c1ccc(CSc2nnc(SC(C)C(=O)c3ccc(F)cc3)s2)o1 (centres undefined),.,-0.65
C=CCn1c(N)c(C(=O)N2CCCCC2)sc1=S,-1.17,-0.05
Nc1c(N)c2ccccc2oc1=O,3.2,0.65
O=S1(=O)CCN(CC2CCCC2)CC1,0.26,0.55
N#CCSc1nnc(SCC#N)s1,-0.5,.
COc1ccc(OC)c(NC(=O)c2ccc3c(=O)n(-c4ccc(OC)c(OC)c4)c(=S)[nH]c3c2)c1,0.85,.
CSc1sc(C(=O)/C=C/N(C)C)c2c1C(=O)CC(C)(C)C2,-0.765,.
CCCN1COc2ccc3c(-c4ccccc4)cc(=O)oc3c2C1,2.71,-0.3
COCCNC(=O)c1cc[n+]([O-])cc1,.,-0.2
Cc1c(Cl)cccc1N1C(=O)C2C3c4ccccc4C(c4ccccc43)C2C1=O (centres undefined),-0.26,.
COc1ccc(N(CN2C(=O)c3ccccc3C2=O)C(=O)c2ccccc2)cc1,53.3,-0.3
CCOc1ccc(N2C(=O)C3C4c5ccccc5C(C(C)=O)(c5ccccc54)C3C2=O)cc1 (centres undefined),0.535,.
Cc1ccn2cc(CCNC(=O)C3CCCCC3)nc2c1,9.21,-0.1
CCNS(=O)(=O)c1cccc(S(=O)(=O)c2ccc(Cl)cc2)c1,0.285,-0.3
O=C(CCSc1ccc(Br)cc1)Nc1ccc(F)cc1,0.03,0.45
CC(=O)c1ccc(N2C(=O)C3C4C=CC(CC4)C3C2=O)cc1 (centres undefined),0.575,.
NS(=O)(=O)c1ccc(-n2nncc2-c2ccccc2)cc1,.,1.7
CN(CC(=O)Nc1ccccc1SCC#N)c1ccccc1,.,0.65
Cc1cc(C(=O)NC(C)(C)C)on1,-0.115,-0.15
# Next part:
SMILES,CapD inh,AID504770
CC(C)(C)OC(=O)N1CCc2[nH]ncc2C1,0.045,0.45
CCN(CC)c1nc(C)nc2sc(C(=O)NC3CCCCCC3)c(C)c12,0.93,.
Cc1ccnc(Nc2nc3ccccc3o2)n1,-0.895,-0.1
CS(=O)(=O)c1ccc2[nH]c(C(=O)N3CCN(c4ncccc4C(F)(F)F)CC3)cc2c1,-0.315,.
C=CCC(c1ccncc1)/[N+]([O-])=C\c1ccccc1 (centres undefined),0.13,-0.05
O=C(Nc1ccccc1I)c1ccc(Br)o1,0.315,0.1
CN(C)/C=C/C(=O)c1ccc2c(c1)CCO2,-6.09*,0.95
CCn1c(=O)cc(OCC(=O)NCCCN2CCCC2=O)c2ccccc21,0.22,-0.4
CN(C)c1ccc(/C=N/N2C(=O)CNC2=O)cc1,42.1,-0.7
COc1ccc(NC(=S)NC(C)(C)C)cc1,1.21,0
COc1cc(C)c(S(N)(=O)=O)c(S(N)(=O)=O)c1,-0.105,1.75
CN1CCN(C(=O)c2cnn(-c3ccccc3)c2NC(=O)c2ccccc2)CC1,0.21,0.85
CN(Cc1ccccc1)C(=O)COC(=O)c1ccc(O)cc1,.,0.95
Cc1nc2ccccn2c1P(=S)(N1CCCCC1)N1CCCCC1,.,-0.25
O=S(=O)(c1ccccc1)C1CON(c2ccccc2)C1c1ccccc1 (centres undefined),-0.59,.
CC(C(=O)Nc1ccc(C(N)=O)cc1)N(C)Cc1cccs1 (centres undefined),.,0.6
CC1=CC(C)C2C(=O)N(CCCN(C)C)C(=O)C2C1 (centres undefined),-0.11,0.35
COc1ccc(/C(O)=C2\C(=N)N(c3ccccc3Cl)C3=C(C(=O)CCC3)C2c2cc(OC)c(OC)c(OC)c2)cc1 (centres undefined),0.385,.
COc1ccc2c(c1)Cc1sc(NC(=O)c3ccccc3)nc1-2,-0.49,0.6
c1coc(-c2nnc(-c3ccco3)nn2)c1,.,1.3
O=C1/C(=C\c2ccccn2)SC(=S)N1CCc1ccc(Cl)cc1,-0.64,-0.25
Cc1cccc(OCc2nc(C#N)c(NCCc3ccccc3)o2)c1,-0.025,-0.9
COc1cc(/C=N/NC(=O)c2csc(CS(=O)(=O)Cc3ccco3)n2)cc(OC)c1O,-1.43,.
CC(C)(C)C(=O)Nc1cccn(Cc2c(Cl)cccc2Cl)c1=O,0.81,.
Clc1cc(Cl)c2c(c1)C=C1CCCCC1(N1CCCC1)O2 (centres undefined),0.59,.
# (cont.)
SMILES,CapD inh,AID504770
CCOC(=O)c1cnc2c(S(=O)(=O)C(C)C)csc2c1Sc1ccc(Cl)cc1,-0.985,-0.9
CC(C)(Oc1ccc(Cl)cc1)C(=O)Nc1cccc(-c2nn3cnnc3s2)c1,.,1
O=C1CCSC2=C1CS(=O)(=O)c1ccc(Cl)cc12,-0.425,-0.75
O=C(COC(=O)c1c2c(nc3ccccc13)CCCC2)c1ccco1,.,0.5
Cc1ccc2oc(=O)c3cnn(CC(=O)N(C)Cc4ccccc4)c3c2c1,-0.275,0.2
O=C(CN1C2=NCCCN2c2ccccc21)c1ccc2c(c1)OCO2,0.855,.
CC(=O)OCC1OC2OC(C)(C)OC2C2OC(C)(C)OC12 (centres undefined),-0.085,.
CCc1ccc(N2C(=O)CSC23C(=O)N(C)c2ccccc23)cc1 (centres undefined),0.33,0.45
O=C(OCc1ccccc1Cl)c1ccc2c(=O)n3c(nc2c1)CCC3,.,-0.65
Cc1ccc(CC(=O)O)cc1C,.,1.35
COc1ccc(-c2[nH]nc3c2C(c2cc(OC)c(OC)c(OC)c2)C(C#N)=C(N)O3)cc1 (centres undefined),-0.04,.
COC(=O)c1c(-c2ccc(OC)c(OC)c2)csc1NC(=O)C1CC1c1ccccc1 (centres undefined),2.92,0
CCc1ccc(N2COc3ccc4cc(C(=O)OC)c(=O)oc4c3C2)cc1,7.62,0.4
N#CC(C#N)=CNc1nn(-c2ccccc2)cc1C#N,.,1.15
Nc1nnc(N)c2ccccc12,.,-0.35
Cc1ccc(C(=O)Cn2cncn2)cc1,-0.69,-1.15
CC(C(=O)Nc1ccc(S(=O)(=O)N2CCCC2)cc1)N1CCc2ccccc2C1 (centres undefined),.,-0.4
Cc1cc(OCC(O)CN2CCCCC2C)cc(C)c1Cl (centres undefined),-0.11,-0.75
Cc1cc(C(=O)Cn2cnc3ccsc3c2=O)c(C)n1CCC1=CCCCC1,.,-0.05
CCN(Cc1ccccc1)C(=O)Cn1cc2c(n1)CCCCCC2,0.21,1.5
Cc1nn(-c2ccccc2)c2sc(C(=O)N3CCN(C(=O)c4ccccc4)CC3)cc12,.,-0.1
CCOC(=O)c1c(NC(=O)C(C)Sc2nnc(CNC(=O)c3ccco3)n2-c2cc(C)ccc2C)sc2c1CCC2 (centres undefined),-0.19,0.05
Cc1cc(C)cc(Oc2c(F)c(F)c(F)c(F)c2F)c1,.,-0.3
Cc1ccccc1C(=O)N1CCC(C(=O)NC2CCCCCC2)CC1,.,-0.05
CC(=O)N/C(=C\c1ccccc1)C(=O)NCC1CCCO1 (centres undefined),0.485,0.05

# Five entries from above, tab-delimited.
molecule	CapD inh	AID504770
C=CCOC(=O)C1=C(C)OC(N)=C(C#N)C1c1ccccc1[N+](=O)[O-] (centres undefined)	0.3	.
CCOc1ccc(N2C(=O)C3C4c5ccccc5C(C(C)=O)(c5ccccc54)C3C2=O)cc1 (centres undefined)	0.535	.
CC1=CC(C)C2C(=O)N(CCCN(C)C)C(=O)C2C1 (centres undefined)	-0.11	0.35
CCc1ccc(N2C(=O)CSC23C(=O)N(C)c2ccccc23)cc1 (centres undefined)	0.33	0.45
Cc1c(Cl)cccc1N1C(=O)C2C3c4ccccc4C(c4ccccc43)C2C1=O (centres undefined)	-0.26	.

# More entries.
SMILES,CapD inh,AID504770
Cc1cc(C)c(S(=O)(=O)c2ccccc2C)c(Oc2ccccc2)n1,0.23,.
Brc1ccc(-c2ccc(Br)s2)s1,0.735,-2.15
Cc1n[nH]c(=O)c2c(NC(=O)COC(=O)C3CC4CCCC(C3)C4=O)oc(C)c12 (centres undefined),.,0.3
CCOC(=O)c1ccc(Oc2nc(N(C)C)nc(N3CCOCC3)n2)cc1,0.465,0.75
Cc1ccc([N+](=O)[O-])c(C(=O)N(CCc2ccccn2)c2ccccc2)c1,0.94,.
Cc1oc(-c2ccc(Cl)cc2)nc1CSc1nc2ccncc2[nH]1,-0.625,-0.5
COc1cc(OC)nc(CCC(=O)N2CCN(CC(=O)N3CCOCC3)CC2)n1,-0.485,.
Cc1c(-c2ccn[nH]2)nnn1-c1cc(Cl)ccc1Cl,0.105,-0.35
CC1CCC(C(C)C)C(OC(=O)CSc2nccc(=O)[nH]2)C1 (centres undefined),.,-0.55
Cc1[nH]c(=O)[nH]c(=O)c1S(=O)(=O)N1CCCc2ccccc21,0.535,0.05
Cc1sc[n+](CC(=O)c2ccc(Br)cc2)c1C,0.07,-0.55
CCCCc1nnc(NC(=O)CSc2nc(O)c(NC(C)=O)c(=O)[nH]2)s1,-0.955,3.65
CC(C)N1CC(O)=C(c2nc3ccccc3[nH]2)C1=N,.,-1.1
O=C(CSCc1ccco1)Nc1cc(C(F)(F)F)ccc1Cl,-0.15,-1.1
O=C(CN1C(=O)CCC1=O)Nc1ccccc1-c1nc2ccccc2o1,.,1.65
NC(=O)c1sc2c(c1N)C(c1ccc(Cl)cc1)C1=C(N2)c2ccccc2C1=O (centres undefined),-1.27,0.9
CNC(=O)Cc1nc2ccccc2[nH]1,.,0.25
O=C(COc1ccccc1)OCc1ccccc1F,-0.295,-0.4
CC1CCCC(NC(=O)Cn2c(-c3cccs3)cc3ccccc32)C1C (centres undefined),78.1,0.45
Cc1nc2c([nH]1)C(c1ccc(C(C)C)cc1)C(C#N)=C(C#N)O2 (centres undefined),0.11,0.85
CC1CCN(C(=O)c2ccc(S(=O)(=O)N(C)C)cc2)C(C)C1 (centres undefined),0.135,-0.2
CCOC(=O)c1cnc2c(C)cccc2c1Nc1ccc(OC(F)(F)F)cc1,-1.4,.
CSCCC(C(=O)O)N1C(=O)CSC1=S (centres undefined),-0.39,-0.05

# High-throughput results (PubChem BioAssay)
